Bioassay records (PubChem BioAssay)
RE007 growth inh = less growth of the S. pombe RE007 Vpr strain. Potency, µM (titrated, usually from 92.2 µM), for the others: top-dose activity change, negative = less growth. actives 0.21% (n = 360,000). S. pombe RE007 Vpr strain, BacTiter-Glo ATP luminescence, 24 h; control for the full effect not named in the record; active = well fitted falling curve with a large enough effect; inconclusive = small, poorly fitted or top-dose-only effect; inactive = no such curve, though single readings can be large or run the other way;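 note: % is set by controls: 0 for no effect and ±100 for the full control effect; nearly all actives have a fitted effect of over 50% in size; the assay follows cell death caused by Vpr and the record does not say whether a fall means rescue or toxicity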
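Fission yeast strain RE007, carrying one chromosomally integrated HIV-1 vpr copy, was seeded at OD 0.01 in PMG+AL medium with 23 nL pinned compound. After 24 h at 30 °C and 99% humidity, viability was read by BacTiter-Glo luminescence.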
Cruzain noTriton = blocks cruzain activity in detergent-free assay; P25779; purified cruzain, Z-FR-AMC fluorescence, no detergent; Potency, µM, without a hit: max response, negative = inhibition, most hits filed as inhibitors; actives 2.3% (n = 200,000);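 note: plate controls were enzyme without inhibitor for no effect and buffer without enzyme for full effect; nearly all actives have a fitted effect of over 40% in size; top concentration of the series not given in the record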
Target sequence (P25779 123-467 limits assumed): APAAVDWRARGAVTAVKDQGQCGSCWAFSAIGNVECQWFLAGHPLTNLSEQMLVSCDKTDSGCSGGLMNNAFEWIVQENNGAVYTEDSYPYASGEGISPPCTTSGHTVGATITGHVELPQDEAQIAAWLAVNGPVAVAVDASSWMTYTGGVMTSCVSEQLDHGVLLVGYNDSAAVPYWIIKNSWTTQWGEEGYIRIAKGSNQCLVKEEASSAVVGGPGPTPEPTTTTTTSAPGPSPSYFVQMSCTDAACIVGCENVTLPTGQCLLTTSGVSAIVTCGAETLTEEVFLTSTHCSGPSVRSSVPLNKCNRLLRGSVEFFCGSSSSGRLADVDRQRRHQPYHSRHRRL
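Purified cruzain at 1.5 nM, pre-incubated 15 min with compound at room temperature in 100 mM sodium acetate pH 5.5, 5 mM DTT, 0.00005% Triton X-100. Reaction started with 2 uM Z-FR-AMC; AMC fluorescence increase over 60 s gives rate.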
Cruzain Triton = inhibitors of Trypanosoma cruzi cruzain with detergent; Potency, µM, for the others: max response, negative = inhibition, actives largely listed as inhibitors; P25779; purified cruzain, Z-FR-AMC fluorescence, 0.01% Triton; actives 0.43% (n = 200,000);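 note: plate controls were neutral wells for no effect and buffer without enzyme for full effect; nearly all actives have a fitted effect of over 40% in size; top concentration of the series not given in the record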
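Detergent-containing arm of a paired screen for aggregation-based inhibition: 0.01% Triton X-100 present. Cruzain at 1.5 nM cleaved 2 uM Z-FR-AMC at pH 5.5 with 5 mM DTT; AMC fluorescence gain over 60 s measured activity.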
SARS PLpro yeast = SARS-CoV PLP inhibition in yeast; S. cerevisiae expressing SARS-CoV PLpro, growth rescue; control for the full effect not named in the record; Potency, µM (doses to about 32.9 µM), inactives show top-dose activity, positive = growth rescue; actives 0.19% (n = 330,000); AID 485353; active means well fitted rising curve with a large enough effect; inconclusive means small, poorly fitted or top-dose-only effect; inactive means no such curve, though single readings can be large or run the other way; note: 0% is about no effect; nearly all actives have a fitted effect of over 55% in size; growth read by luminescence after 48 h
NS1 inh = blocks influenza NS1 protein function; S. cerevisiae slowed by influenza A NS1, growth recovery by OD600; Potency, µM (doses to about 46.1 µM), inactives show at the highest dose activity, positive = more growth; actives 0.4% (n = 270,000); AID 2326; active means well fitted rising curve with a large enough effect; inconclusive means small, poorly fitted or top-dose-only effect; inactive means no such curve, though single readings can be large or run the other way; note: nearly all actives have a fitted effect of over 50% in size
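OD600 was taken as the measure of yeast growth restored by compound in an NS1-expressing S. cerevisiae strain. Cells had been washed out of glucose medium and diluted 1:100 into galactose -URA medium, pH 6.0.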
2A StopGo = lowers the luciferase signal of an FMDV 2A StopGo reporter. human cells with a luciferase reporter of 2A StopGo recoding; control for the full effect not named in the record. Potency, µM (highest dose often 57.9 µM), without a hit: at the highest dose signal change, negative = less light. actives 1.2% (n = 410,000). AID 1159524; active = well fitted falling curve with a large enough effect; inconclusive = small, poorly fitted or top-dose-only effect; inactive = no such curve, though single readings can be large or run the other way; tested in HEK293T cells; note: % is set by controls: 0 for no effect and ±100 for the full control effect; nearly all actives have a fitted effect of over 45% in size; luciferase light after 4 h
MARV entry inh = Marburg virus entry inhibition; Potency, µM (titrated, usually from 37.8 µM), for the others: at the highest dose activity change, negative = inhibition, most hits filed as inhibitors; actives 1.8% (n = 300,000); Marburg virus pseudotyped entry inhibition, cell reporter; control for the full effect not named in the record; about a third of the inactives were read at about 46 µM; active = well fitted inhibition curve with a large enough effect; inconclusive = small, poorly fitted or top-dose-only effect, or effect the other way; inactive = flat fitted curve, though single readings scatter; tested in HEK293 cells; about a fifth of its hits are not listed in these tables; note: % is set by controls: 0 for no effect and ±100 for the full control effect; luciferase read-out
LASV entry inh = blocks Lassa virus binding to or entry into cells | Lassa virus pseudotype entry inhibition, cell reporter; control for the full effect not named in the record | Potency, µM (series often up to 37.9 µM), for inactives: top-dose activity change, negative = inhibition, actives largely listed as inhibitors | actives 1.2% (n = 300,000) | AID 540256; active means well fitted inhibition curve with a large enough effect; inconclusive means small, poorly fitted or top-dose-only effect, or effect the other way; inactive means flat fitted curve, though single readings scatter; tested in HEK293 cells; note: % is set by controls: 0 for no effect and ±100 for the full control effect; nearly all actives have a fitted effect of over 50% in size; luciferase read-out
* marks the source's active call; other numbers are inactive results; ? = inconclusive; . = not tested or not shown; & = joins results of further samples; [ ] = another dose, or the depositor's remark. Unless noted, calls come from the whole dose curve; as a rule, active = well fitted curve in the direction sought with a large enough effect; inconclusive = small, poorly fitted or top-dose-only effect, or another doubt; inactive = no such curve, though single readings can be large; an effect the other way counts as inactive or inconclusive. Potency is the fitted concentration of half-maximal effect.

SMILES	RE007 growth inh	Cruzain noTriton	Cruzain Triton	SARS PLpro yeast	NS1 inh	2A StopGo	MARV entry inh	LASV entry inh
CCCCNC(=O)C1CCCN(S(=O)(=O)c2ccc(-n3cnnn3)cc2)C1 (stereo not given)	0%	-12%	3.3%	3%	-3%	-5%	-4%	14%
Cc1cccc(Oc2c(C=O)c3ccccc3n2C)c1	?	-2%	-2.8%	-2%	-11%	-16%	-14%	-11%
CCN(c1cccc(C)c1)S(=O)(=O)c1ccc2c(c1)NC(=O)CS2	-4%	.	.	9%	15%	-13%	.	.
COc1ccc(NC(=O)c2cc(=O)[nH]c3ccccc23)cc1	-8%	.	.	-2%	6%	5%	.	.
CCOC(=O)CCCN1CC(O)=C(c2nc(-c3ccc(Cl)cc3)cs2)C1=N	1%	.	.	-2%	.	-13%	-2%[46.1 µM]	0%
Cc1sc(NC(=O)CCl)c(C(=O)c2ccccc2)c1C	0%	-4%	-5.0%	-16%	-36%	?	2%	?
N#CCCn1cc(C(CC(=O)c2ccc(Br)cc2)C(=O)O)c2ccccc21 (stereo not given)	19%	?	-7.1%	11%	8.9µM*	-17%	.	.
Cc1cc(O)c(C(=O)/C=C/c2ccc(Cl)cc2)c(=O)o1	1%	.	.	-2%	14%	25µM*	22%	23%
CC(=O)c1cccc(NC(=O)CCCOc2ccc(C)cc2)c1	-2%	-15%	-9.4%	-3%	-16%	-12%	5%	9%
Cc1ccc(C)c(OCCn2cc(C(=O)c3cccs3)c3ccccc32)c1	.	-17%	-4.5%	.	.	-25%	-22%[46.1 µM]	0%[46.1 µM]
CC(C)N1CCc2c(sc(NC(=O)c3cc(-c4cccs4)nc4ccccc34)c2C(N)=O)C1	14%	-10%	-24%	11%	4%	?	?	?
COc1ccc(/C=N/N2CCN(C3c4ccccc4-c4ccccc43)CC2)cc1OC	-25%	?	-5.0%	-18%	17%	0%	?	?
CC(Cc1cccs1)NC(=O)Nc1cccc(Cl)c1 (stereo not given)	?	-8%	-2.1%	-29%	-79%	19%	7%	7%
CCOc1ccc2nc(N3CCCC(C(=O)NCCCN4CCOCC4)C3)sc2c1 (stereo not given)	-8%	-8%	-2.3%	-1%	2%	31%[activator]	.	.
Cc1cc(NC(=O)C2Oc3ccccc3OC2C)no1 (stereo not given)	-9%	.	.	1%	-2%	7%	16%[46.1 µM]	-17%[46.1 µM]
CCN(CC)C(=O)CN(C#N)c1nc(NC(C)C)nc(NC(C)C)n1	-6%[3.69 µM]	-2%	2.2%	?	4%	-10%	-2%&-2%	15%
Cc1ccc(S(=O)(=O)NCC(=O)OCC(=O)N2N=C(c3ccc(Cl)cc3)CC2c2ccco2)cc1C (stereo not given)	-6%	?	-20%	13%	23%	-4%	25%	?
NNC(=O)c1c[nH]c2ccc(OCc3ccccc3)cc12	8%	.	.	.	.	0%	9%[46.1 µM]	-17%
OC(CSc1ccccc1Cl)CN1CCN(c2ccccc2F)CC1 (stereo not given)	-11%	1%	-7.9%	-1%	-13%	-21%	?	2%
Cc1ccc(Nc2nc(-c3ccc(S(=O)(=O)N4CCOCC4)cc3)cs2)cc1Cl	0%	?	-4.1%	2%	11%	?	?	-5%
CC(SCC(=O)Nc1ccc(S(=O)(=O)N2CCCCC2)cc1)C(=O)O (stereo not given)	5%	-8%	5.0%	3%	7%	-13%	4%	4%
COc1cc(C)c(CNc2cc(C)cc(C)c2)cc1C	17%	7%	-4.4%	0%	-2%	-8%	?	?
CC(C)CN(C(=O)CN(C)C(=O)Cc1ccc(Cl)cc1)c1c(N)n(CC(C)C)c(=O)[nH]c1=O	-10%	.	.	1%	.	-13%	-9%	-2%
CCc1cc(=O)[nH]c(SCc2nc(-c3cccc(Cl)c3)no2)n1	.	-24%	-4.0%	.	.	-26%	.	?
CCOC(=O)C1CCN(C(=O)c2ccc3c(c2)sc2nc(-c4ccc(OC)cc4)cn23)CC1	.	2%	-5.2%	.	.	-29%	.	13%[46.1 µM]
Cc1ccc(CNC(=O)c2ccc(CSCc3c(F)cccc3Cl)o2)cc1	.	-1%	-1.0%	.	.	0%	.	?
COC(=O)c1ccc(Cn2nnc3c(=O)[nH]c(C4CCN(S(=O)(=O)c5cc(C)ccc5C)CC4)nc32)cc1	6%	.	.	?	17%	-25%	.	.
CCc1cccc(NC(=O)CCc2nc3sc4c(c3c(=O)[nH]2)CCCC4)c1	-7%	.	.	-1%	.	-13%	-26%	?
CCOc1ccc(CSC(=N)N)cc1[N+](=O)[O-]	0%	2%	1.1%	-3%	9%	-26%	?	?
Cc1oc(-c2cccc(Cl)c2)nc1CN1CCC(C(=O)NC(C)C)CC1	.	-6%	1.6%	.	.	3%	25%[46.1 µM]	?
CCOC(=O)CSc1snnc1-c1ccccc1	?	6%	-0.8%	1%	-2%	-12%	-2%	3%
Nc1c(C(=O)Nc2ccccc2)nnn1Cc1ccc(F)cc1Cl	.	4%	-0.6%	.	.	25%	?	-20%[46.1 µM]
O=c1[nH]c(-c2ccccc2)c(-c2ccccc2)nc1[N+](=O)[O-]	2%	.	.	1%	9%	-17%	.	.
CCOC(=O)N1CCN(C(=O)CSc2nc3c([nH]c4ccccc43)c(=O)n2CCOC)CC1	-2%	.	.	0%	-3%	-7%	-20%	?
CCOCC(=O)NC1CCSC1=O (stereo not given)	3%	2%	-2.9%	-4%	-9%	?	5%	9%
CC12CCC(=O)N1C(C(=O)Nc1ccccc1N1CCOCC1)CS2 (stereo not given)	3%	.	.	-4%	7%	-9%	?	-6%
Cc1ccc2c(=O)cc(C(=O)Nc3sc4c(c3C(=O)NCc3cccnc3)CCCC4)oc2c1C	.	-6%	1.5%	.	.	-16%	9%[46.1 µM]	2%[46.1 µM]
CC(=O)c1cccc(Nc2ccc3cc(S(=O)(=O)N4CCCC4)ccc3n2)c1	.	13µM*	-6.9%	.	.	-8%	.	-13%[46.1 µM]
CC(C)(c1ccc(O)cc1)c1ccc(O)cc1	-3%	13%&3%	-4.2%&-3.7%	0%	7%	-17%	.	.
Cc1oc(-c2ccccc2F)nc1CS(=O)(=O)CC(=O)NCc1ccccc1Cl	-2%	.	.	0%	8%	-15%	.	.
COc1nc(NC23CC4CC(CC(C4)C2)C3)nc(OC)n1	-23%	9%	-4.3%	2%	-128%	?	5%[46.1 µM]	5%
O=C(NC(=O)c1ccc(C(F)(F)F)cc1)Nc1ccc(-c2cnco2)cc1	-5%	.	.	-4%	3%	17%	7%	0%
COc1ccc(S(=O)(=O)N2CCC(C(=O)NCCC(=O)Nc3nccs3)CC2)cc1	-1%	.	.	20%	-1%	?	.	.
Cn1nc(-c2ccccc2)c2ncc(C(F)(F)F)cc21	1%	.	.	2%	.	17%	4%[46.1 µM]	-1%
c1ccc2c(c1)oc1c(N3CCOCC3)ncnc12	-19%	-8%	1.0%	-2%	-9%	18%	-1%	2%
COc1ccc(N2CCN(C(=O)C(OC(C)=O)c3ccccc3)CC2)cc1 (stereo not given)	7%	11%	-1.3%	2%	7%	-12%	-14%	-13%
Cc1ccc[n+](Cc2ccc([N+](=O)[O-])cc2)c1	-5%	.	.	0%	5%	2%	.	.
CCc1cc2c(=O)c(-c3nc4ccccc4n3C)c(CCCC(=O)O)oc2cc1OC(=O)C(C)(C)C	2%	.	.	-5%	.	-19%	-26%[14.2 µM]	-1%
COc1ccccc1NC(=O)c1cc2c(n(-c3ccc(C)cc3)c1=O)CC(C)(C)CC2=O	.	-3%	-3.7%	.	.	20%	-1%[46.1 µM]	-2%[46.1 µM]
CC(C)[C@H](NC(=O)NCCc1ccc(Cl)cc1)C(=O)O	-5%	2%	2.5%	1%	-2%	13%	0%	5%
COc1ccc(N2CCN(C(=O)c3oc4c(c3C)C(=O)CCC4)CC2)cc1	4%	.	.	1%	-5%	-23%	-1%	6%
Cc1cc(NC(=O)Cc2ccccc2)nc2c1c(=O)oc1ccccc12	-4%	-9%	-9.1%	-8%	3%	-6%	.	.
COC(=O)c1sc(=S)sc1C(=O)OC	32µM*	-15%	-7.6%	6.3µM*	-12%	.	?	-30%
Cc1ccc(/C(O)=C/C(=O)C(=O)NC23CC4CC(CC(C4)C2)C3)cc1	8%	.	.	0%	6%	34%[activator]	21%	-3%
N#CC1=C(N)Oc2ccc3ccccc3c2C1c1cccnc1 (stereo not given)	2%	.	.	0%	-13%	?	?	?
Cc1[nH]c2ccccc2c1CCNC(=O)c1ccc2c(c1[N+](=O)[O-])C(=O)c1ccccc1C2=O	-4%	10µM*	2.2%	-5%	13%	-18%	?	?
O=C1Nc2ccccc2C12OCCS2 (stereo not given)	.	-4%	2.4%	-3%	1%	.	3%	.
CSCCC(CO)NC(=O)OCc1ccccc1 (stereo not given)	-7%	11%	1.7%	-4%	4%	19%	?	?
COc1ccc(-c2cccc(NS(=O)(=O)c3cc(C(F)(F)F)ccc3Cl)c2)nn1	.	-12%	-15%	.	.	70%[activator]	.	24%[46.1 µM]
Nc1ccnn1Cc1cccs1	7%	-7%	-1.7%	-3%	7%	13%	23%	1%

Following part:
SMILES	RE007 growth inh	Cruzain noTriton	Cruzain Triton	SARS PLpro yeast	NS1 inh	2A StopGo	MARV entry inh	LASV entry inh
C=CCn1nnnc1-c1cccc(Cl)c1	-6%	.	.	-1%	-2%	1%	-20%[46.1 µM]	7%
Cc1cc(NC(C)C)n2c(nc3ccccc32)c1C#N	-11%	.	.	-2%	.	-29%	2%	-11%
Cc1ccc(NC(=O)CCS(=O)(=O)c2ccccc2)cc1S(=O)(=O)N1CCOCC1	-4%	.	.	0%	.	-18%	11%[46.1 µM]	1%
Cc1cc(C)n2c(SCc3nnc(-c4cccs4)o3)nnc2n1	-21%	.	.	-1%	.	2%	18%[46.1 µM]	.
COc1cc(CN2CCc3c([nH]c4ccccc34)C2)cc(OC)c1	-25%	.	.	3%	-5%	-20%	-14%	-7%
CCCCn1c(=O)[nH]c(=O)c2c1nc(-c1ccc(OCCC)c(OCC)c1)n2C	-5%	.	.	0%	-2%	-24%	.	.
